# Compound activity: PubChem, Fisher Drug Discovery Resource Center
# NPYLR7 agonist: activates Aedes aegypti NPYLR7 receptor. HEK293T NPYLR7/Galpha15, GCaMP6s calcium fluorescence. 270,000 compounds, 0.15% hits. AID 1259423. activation, % at 10 µM; in the data active means activation above about 40%;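 further: 0% = vehicle and 100% = reference agonist at the receptor; some compounds past the cut are filed as inactive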
# NPYLR7 agonist max-min: also measured in NPYLR7 agonist; calls as there; activation, %; measured here: Max-Min RFU normalised activation; some inactives read as strong as hits;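 span of the calcium signal over five minutes; 0% = vehicle and 100% = native peptide agonist; compound fluorescence can raise it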
# Active calls of the source: *; & = joins results of further samples. Some of the compounds tested (hit frequency here may not be typical).
SMILES,NPYLR7 agonist,NPYLR7 agonist max-min
C=CCN(Cc1ccc(Cl)s1)C(=O)CSc1nnc(-c2ccc(C)cc2)o1,-1,-3
CC(C)(C)c1cc(C(C)(C)C)c2oc(=N)c(C(N)=O)cc2c1,-7,-14
COc1cc(C)ccc1OCCOc1ccc(Br)cc1,17,4
Cc1cc(C)c(NC(=O)CN(C)CCC(=O)Nc2ccccc2Cl)c(C)c1,0,-2
C=CCN1C(=O)NC(=O)/C(=C/c2cccc(OCc3ccccc3F)c2)C1=O,3,2
O=C(N1CCOCC1)C(F)(F)C1(F)OC(F)(F)C(F)(F)C1(F)F (stereo unspecified),7,3
Cc1ccsc1C(=O)N1CCC1(C)C(=O)NS(=O)(=O)c1cccs1 (stereo unspecified),-2,-6
Cc1ccc(-n2nc3c(c2NC(=O)c2ccccc2C)CSC3)cc1,0,5
CCc1nc2ccc(C(=O)N(C)C(C)C)cn2c1N(C)C(=O)Nc1ccccc1OC,-5,-8
Cc1nnc(NC(=O)C(C)(C)C)s1,4&7,3&7
Cc1nc(C(=O)N2CCN(c3ccccc3)CC2)nn1-c1ccc(F)cc1,18,9
CCOc1ccc(CN2CCN(Cc3cc4c(cc3Cl)OCO4)CC2CCO)cc1 (stereo unspecified),0,-3
C#CCn1c(=NC(=O)c2ccccc2S(C)(=O)=O)sc2cc(F)cc(F)c21,2,-2
Cc1ccc(-c2nnc(C(C)N3CCN(CCO)CC3)o2)cc1 (stereo unspecified),4,3
COCCNC(=O)c1cc2n(n1)CCN(Cc1c(F)cccc1Cl)C2=O,-11,-10
Cc1ccn2c(NC(=O)CC(C)C)c(-c3cccc(F)c3)nc2c1,-6,1
CSc1cccc(C(=O)N(Cc2cccnc2)c2nc3ccc(S(C)(=O)=O)cc3s2)c1,-17,-21
Cc1c(C(=O)N2CCN(CC(=O)Nc3ccccc3C(F)(F)F)CC2)sc2cccc(F)c12,-2,-6
CCN(CC)S(=O)(=O)c1ccc2c(c1)nc(SCc1cccc(C)c1F)n2C(C)C,3,0
Cc1cccc2[nH]c(COCC(=O)N3CCCC3C(=O)N(C)C)nc12 (stereo unspecified),4,2
CCOc1cccc2cc(-c3csc(NC(C)=O)n3)c(=O)oc12,0,-7
COc1ccc2ccccc2c1CNc1cncc(Cl)n1,9,5
Cc1nc(N2CCNCC2)c2c3c(sc2n1)CCCC3,-2,4
Cc1ccc(CN(c2cccc(C#N)c2)S(C)(=O)=O)cc1,-3,-6
CCOC(=O)N1CCN(Cc2c(C(=O)N3CCOCC3)nc3ccccn23)CC1,0,-4
O=C(CS(=O)(=O)Cc1ccc(F)cc1Cl)NCCOc1ccccc1,-4,-5
CC(C)=CC(=O)N1CCCN(CC(C)C)CC1,5,4
COCCn1c(C)cc(O)c(C(c2ccncc2)N2CCN(C)CC2)c1=O (stereo unspecified),6,2
NC(COCc1ccccc1)c1csc(Nc2cc(NCCCO)ncn2)n1 (stereo unspecified),-3,-8
CN1C(=CC#N)N(C)c2ccccc21,4,4
Cc1ccc(C(=NC(=O)NCc2ccco2)C(Cl)Cl)cc1F,8,5
CN(C)CCn1ccc(NC(=O)CCN2C(=O)c3ccccc3N3C(=O)CCC23C)n1 (stereo unspecified),2,1
CSCC(=O)N(C)CC1CCCN(CCc2ccc(Cl)cc2)C1 (stereo unspecified),20,5
CC1Oc2ccccc2OC1C(=O)N(Cc1ccco1)c1ccccc1F (stereo unspecified),1,-3
CCCCN(C)C(=O)C(C)n1nc(CC)n2c(cc3occc32)c1=O (stereo unspecified),7,7
O=C(CCCCCl)NCC1Cc2cc(F)ccc2O1 (stereo unspecified),1,-2
CC(C)(C)c1nnc2sc(SCc3cc([N+](=O)[O-])cc4c3OCOC4)nn2c1=O,19,28
CC1(C)Cc2nc3sc4c(c3cc2CO1)N=CN1CCCN=C41,6,4
Cc1ccc(S(=O)(=O)N(CC(=O)NC2CCCCC2)C(=O)N2CCN(C)CC2)cc1,-4,-6
CCS(=O)(=O)c1ccc(O)c(N=Cc2ccc[nH]2)c1,8,7
COCc1cc(CNC(=O)COc2c(C)ccc(C)c2C)[nH]n1,3,-10
O=C(C1CCCC1)N1CCN(c2ccc(-c3ccccn3)nn2)CC1,-1,15
c1ccc(-c2n[nH]c3c2CN(Cc2ccc4c(c2)CCO4)CC3)cc1,7,2
Cc1ccc(NC(=O)N(CC(=O)N(CCc2c[nH]c3ccccc23)Cc2ccc(F)cc2)C(C)C)cc1,26,31
COC(=O)c1ccc(OCC(=O)NC2CCCC2)cc1,0,7
O=C(NCCC(=O)N1CCOc2ccccc2C1)c1cccc(F)c1,2,1
COc1cccc(NC(=O)N2CCN(C(=O)c3cc4ccsc4n3Cc3ccccc3F)CC2C)c1 (stereo unspecified),10,6
COc1cccc(C2c3cccn3CCCN2Cc2cccs2)c1 (stereo unspecified),-2,7
CCc1nc(C)sc1C(=O)N1CCc2c(nc(C)nc2N2CCCC2)C1,-2,-4
CCc1cc(-c2nc(N)nc(C(F)(F)F)c2-c2ccc(OC)cc2)c(O)cc1OC,-6,-10

# Random excerpt: 3 compounds from above
SMILES,NPYLR7 agonist,NPYLR7 agonist max-min
COc1cccc(C2c3cccn3CCCN2Cc2cccs2)c1 (stereo unspecified),-2,7
CCc1cc(-c2nc(N)nc(C(F)(F)F)c2-c2ccc(OC)cc2)c(O)cc1OC,-6,-10
COC(=O)c1ccc(OCC(=O)NC2CCCC2)cc1,0,7

# Additional results
SMILES,NPYLR7 agonist,NPYLR7 agonist max-min
COc1ccc2oc(=Nc3ccccc3C(N)=O)c(C(N)=O)cc2c1,26,25
Cn1nc(-c2cccc(NC(=O)Nc3cccc(Cl)c3)c2)ccc1=O,-1,-2
CCC(C(=O)N(Cc1cc(NC(=O)c2cccc(F)c2)ccc1N(C)C)C1CCCCC1)c1ccccc1 (stereo unspecified),4,-5
N#Cc1c(N2CCCC(O)C2)nc(N)c2c(N)nc3c(c12)CC(=O)N3C12CC3CC(CC(C3)C1)C2 (stereo unspecified),2,-1
CSCCNC(=O)C1CCC(=O)N(CC2CCCCC2)C1 (stereo unspecified),3,1
Cc1nc2c(SCc3cccnc3)nnc(-c3ccccc3)c2s1,2,0
Cc1cc(C)c2c(c1)NC(=O)C2CC(=O)O (stereo unspecified),3,4
O=C(CN1C(=O)NC2(CCCCCC2)C1=O)c1ccc(Cl)s1,7,12
O=C(CN1CCCCCC1)NCCc1nc(-c2cccnc2)n[nH]1,8,-6
CN(C(=O)C(C)(C)c1cccc(F)c1)C1CCS(=O)(=O)CC1,8,-7

# Part of the list above, set out differently.
molecule	NPYLR7 agonist	NPYLR7 agonist max-min
Cc1nc2c(SCc3cccnc3)nnc(-c3ccccc3)c2s1	2	0
COc1ccc2oc(=Nc3ccccc3C(N)=O)c(C(N)=O)cc2c1	26	25
Cc1cc(C)c2c(c1)NC(=O)C2CC(=O)O (stereo unspecified)	3	4

# (listing goes on)
SMILES,NPYLR7 agonist,NPYLR7 agonist max-min
NCCCCCNCC12CC3CC(CC(C3)C1)C2,-5,-7
NC(=O)c1ccc(C(=O)N(Cc2ccccc2)C2CCCCC2)nc1,-5,-4
CC(C)(C#N)C(=O)NCc1coc(-c2ccccc2)n1,7,4
O=c1c2c(-c3ccc(Cl)cc3)n3ncnc3nc2ccn1C1CC1,2,7
Cc1ccc2nc(SCCN3CCCCC3)nc(=O)n2c1,3,0
O=C(c1cc(C(F)(F)F)cc(C(F)(F)F)c1)N1CCc2nc(-c3ccccc3)nc(N3CCCCC3)c2C1,-11,-3
CCN(CC(=O)NC)C(=O)c1ccc(C)c(NC(=O)c2ccccc2F)c1,-5,-6
COC(=O)c1sccc1S(=O)(=O)N1CCN(CC(OCc2cccc(OC)c2)c2ccc(Cl)cc2)CC1 (stereo unspecified),18,7
O=C(Nc1cc(-c2ccccc2Br)no1)c1cccnc1,22,13
CCc1cccc(NC(=O)N(CCOC)Cc2ccc(OS(=O)(=O)CC)cc2)c1,3,4
Fc1ccc(-c2nc(CSCC3CCCCO3)no2)cc1 (stereo unspecified),3,3
O=C(OCc1ccc2n[nH]nc2c1)c1ccc(C(F)(F)F)cc1,-1,290
COC(=O)Cn1c(=NC(=O)c2ccc(S(=O)(=O)N(C)C)cc2)sc2c(C)cc(C)cc21,4,2
O=[N+]([O-])c1cc(-c2nc(-c3ccccc3)c3ccccn23)cc([N+](=O)[O-])c1,-3,-4
Cc1cc(OC(=O)c2ccccc2F)c([N+](=O)[O-])c(=O)[nH]1,2,1
Cc1nccn1CCCNC(=O)C1(N2C[C@@H](C)O[C@@H](C)C2)Cc2ccccc2C1,9,4
Cc1ccc(S(=O)(=O)n2cc(/C=C/C(=O)NCCCn3ccnc3)c3ccccc32)cc1,-6,-12
O=C(c1ccc(CSc2ccc3ccccc3n2)cc1)N1CCOCC1,12,7
COc1cc(OC)cc(C(=O)NC(C)c2cnn(-c3ccccc3C)c2C)c1 (stereo unspecified),10,1
N#CC1C(=O)c2ccccc2OC12CCCCC2 (stereo unspecified),-9,-12

# Quoted from the listing:
# Value of `COC(=O)Cn1c(=NC(=O)c2ccc(S(=O)(=O)N(C)C)cc2)sc2c(C)cc(C)cc21` under NPYLR7 agonist: 4
# Value of `Cc1nccn1CCCNC(=O)C1(N2C[C@@H](C)O[C@@H](C)C2)Cc2ccccc2C1` under NPYLR7 agonist max-min: 4
# Value of `N#CC1C(=O)c2ccccc2OC12CCCCC2` (stereo unspecified) under NPYLR7 agonist: -9
# Value of `Fc1ccc(-c2nc(CSCC3CCCCO3)no2)cc1` (stereo unspecified) under NPYLR7 agonist max-min: 3
# Value of `O=C(c1ccc(CSc2ccc3ccccc3n2)cc1)N1CCOCC1` under NPYLR7 agonist max-min: 7

# Going on with the list:
SMILES,NPYLR7 agonist,NPYLR7 agonist max-min
CC1(Cc2ccc3c(c2)OCO3)C(=O)Nc2ccc(OC(F)(F)F)cc21 (stereo unspecified),2,2
O=C(Cn1nc(-c2ccco2)c2sc(N3CCOCC3)nc2c1=O)c1ccc(Cl)cc1,-3,-8
O=C(c1ccc(Cl)nc1)N1CC(=O)N2CCc3c(F)cccc3C2C1 (stereo unspecified),0,13
CCCn1nc(C)cc1NC(=O)c1cccc(CN2CCCC2C)c1 (stereo unspecified),4,1
CC(C)CNC(=O)c1cc(=O)c(OCc2ccc(F)cc2)c[nH]1,2,1
O=C(Oc1coc(CSc2ncccn2)cc1=O)c1cccc([N+](=O)[O-])c1,-11,-8
O=C(Nc1nc2cc3c(cc2s1)OCCCO3)c1cc(Cl)ccc1F,1,0
Cc1ccc(C2C(=C(O)c3ccccc3)C(=O)C(=O)N2CCCN(C)C)cc1 (stereo unspecified),5,-1
O=c1c2cnc3ncnn3c2ccn1-c1nc2ccc(Oc3ccccc3)cc2s1,2,3
CCSc1nc(CC(=O)N2CCN(c3ncccn3)CC2)cs1,2,-8
CCNC(=S)N(CCc1ccc(Cl)cc1)C1CC(=O)N(c2ccc(OC)cc2)C1=O (stereo unspecified),2,0
CN(Cc1ccco1)C(=O)CN1CC2=C(C1=O)C(c1ccc(F)cc1)NC(=O)N2C (stereo unspecified),0,1
COc1cccc(Oc2cc(C(F)(F)F)nc(SCc3ccccc3C)n2)c1,-2,13
NS(=O)(=O)c1ccc(CCNC2CC(=O)N(c3cccc(Cl)c3)C2=O)cc1 (stereo unspecified),-2,-3
O=C(NC(c1ccc2c(c1)OCO2)c1ccccn1)C1CCN(Cc2ccc(Cl)cc2)CC1 (stereo unspecified),-13,-16
CCc1ccc(/C=N\n2c(C)nnc2-n2nc(C)cc2C)cc1,1,0
CS(=O)(=O)Nc1cc(Cl)ccc1Sc1ccc(F)cc1,7,2
COCC(=O)N1CCN(C(=O)CN2CCc3sccc3C2c2ccccc2)CC1 (stereo unspecified),7,0
CCCCCCCCC(=O)Nc1ccc(N2CCCC2)c(C(=O)NCc2ccccc2)c1,6,12
Cc1[nH]cnc1-c1nccn1CCN1CCCC1=O,27,10

# An excerpt from above in order of molecular weight, largest number first.
SMILES,NPYLR7 agonist,NPYLR7 agonist max-min
CN(Cc1ccco1)C(=O)CN1CC2=C(C1=O)C(c1ccc(F)cc1)NC(=O)N2C (stereo unspecified),0,1
COc1cccc(Oc2cc(C(F)(F)F)nc(SCc3ccccc3C)n2)c1,-2,13
Cc1[nH]cnc1-c1nccn1CCN1CCCC1=O,27,10

# Next part
SMILES,NPYLR7 agonist,NPYLR7 agonist max-min
CCOC(=O)C1CCN(C(=O)c2cc(-c3ccccc3)n(-c3cc(OC)ccc3OC)c2C)CC1,-3,-1
CCc1nc2ccc(C(=O)N3CCN(S(=O)(=O)CC)CC3)cn2c1N(CC)CCOC,-8,-10
CC(=O)N1CCN(c2nccn2C)CC1,1,8
O=C1CC(c2cccc(F)c2)N(Cc2ccnc3ccccc23)CCN1 (stereo unspecified),8,-1
CC(=NCCCCCC#N)c1nc(-c2ccccc2)oc1O,7,6
Cc1c(C(=O)NC2CC2)sc(=O)n1Cc1ccc(F)cc1,5,2
O=C(NCCn1ncccc1=O)c1c(F)cccc1F,-1,-2
COC(=O)[C@@H]1C[C@@H](N(C)C)CN1Cc1cccn1-c1ncccn1,8,6
CCN(CC)CCCC(C)NC(=O)c1cc(-c2ccccc2)nn1-c1ccccc1Cl (stereo unspecified),-9,0
COc1cc(CN2CCn3nc(C(=O)N(C)CCc4ccc(OC)c(OC)c4)cc3C2=O)cc(OC)c1,-4,-2
Fc1cccc(Nc2cc3[nH]c(-c4ccccc4)cc3cn2)c1,-14,-15
C=C(C)Cn1c2ccc(NC(=S)NCc3ccccc3F)cc2c(=O)n1C,13,7
CCOc1cccc(C=CC(=O)c2ccc3c(c2)OCCCO3)c1OC,-2,-5
O=C(CSc1nnnn1C1CCCC1)NN1C(=O)NC2(CCCCC2)C1=O,-1,-3
CC1CCCCC1N(C)C(=O)COC(=O)c1cc(=O)n(C)c2ccccc12 (stereo unspecified),9,4
O=C(Nc1nc(-c2cccc(C(F)(F)F)c2)cs1)C1CCOCC1,2,-1
O=C(CCl)Nc1cc(C(F)(F)F)ccc1N1CCCC1,-4,-5
Cc1ccc(NC(=O)Cn2ncn3nc4c(c3c2=O)CCCC4)c(C)c1,-4,-10
